Measles inh – inhibitors of measles virus growth in cells, primary screen, measles RdRp inhibitor project, cell-based, single point, HTS | infected Vero cells, GFP fluorescence, 64 h; stronger effect = lower value | z-score (concentration not given with the values) | actives 0.1% (n = 33,000);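 active means z-score under -3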;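 further: score is relative to mean and SD of the compound wells of a plate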
Active calls of the source: *.

SMILES	Measles inh
CCCN(CCC)C(=O)c1c[nH]c2ccc(S(=O)(=O)Nc3ccc4c(c3)OCCO4)cc2c1=O	0.83
O=C(CN1CCN(Cc2ccc3c(c2)OCO3)CC1)c1ccc(F)cc1	-1.6
CC(=O)N1CCc2c(sc(NC(=O)c3ccc(S(=O)(=O)N4CCCC4)cc3)c2C(N)=O)C1	-0.2
COc1cccc(-n2c(SCC(=O)Nc3ccc(C)cc3C)nc3c([nH]c4ccccc43)c2=O)c1	-0.22
COc1ccccc1N1C(=O)CC(Nc2ccc(N3CCOCC3)cc2)C1=O (stereo unspecified)	0.58
Cc1c(Cl)cccc1-c1ccc(C(=O)N2CCN(c3ccc(Cl)cc3[N+](=O)[O-])CC2)o1	-0.6
CCCCNC(=O)C1c2ccccc2C(=O)N(C)C1c1cn(C)c2ccccc12 (stereo unspecified)	0.63
CC(C)CN(CC(C)C)c1ccc([N+](=O)[O-])cc1C1Oc2c1c(=O)n(C)c(=O)n2C (stereo unspecified)	-0.5
CCOc1ccc(NC(=O)C2c3cc(OC)c(OC)cc3C(=O)N3CCc4ccccc4C23)cc1 (stereo unspecified)	-0.92
Cc1ccc2nc(-c3ccc(N=CC=Cc4ccccc4[N+](=O)[O-])cc3)oc2c1	0
C=CCOc1cccc(C(c2c[nH]c3ccccc23)c2c[nH]c3ccccc23)c1	-1.1
O=C(CNC(=O)c1ccccc1)OCC1CCCN2CCCCC12 (stereo unspecified)	-0.69
Cc1ccc(C)c(N(C)S(=O)(=O)c2ccc3[nH]cc(C(=O)N4CCCCCC4)c(=O)c3c2)c1	-0.07
O=c1[nH]c2ccccc2nc1-c1cc(Br)ccc1NCc1ccccc1	0.82
CC1CC(C)CN(C(=O)c2cn(C)c3ccc(S(=O)(=O)N4CCCC4)cc3c2=O)C1 (stereo unspecified)	-1.2
CSc1cccc(NS(=O)(=O)c2ccc3c(c2)CCCN3C(C)=O)c1	0.66
CCC(=O)N1CCc2cc(S(=O)(=O)N3CC(C)CC(C)C3)ccc21 (stereo unspecified)	-1.5
CCN1C(=O)c2ccc(S(=O)(=O)N3CCCCCC3)c3cccc1c23	-0.49
COC(=O)c1ccc2c(=O)n(Cc3ccc4c(c3)OCO4)c(SCc3ccc(Cl)cc3)nc2c1	-0.25
COC(=O)c1ccc(C2C3=C(CC(C)(C)CC3=O)N(c3ccc(OC)c(Cl)c3)C3=C2C(=O)CC(C)(C)C3)cc1	2.5
CCN(CC)C(=O)Cn1c(-c2cc(OC)c(OC)c(OC)c2)nc2ccccc2c1=O	0.12
COc1ccc(C2C(C(=O)NCc3ccc(F)cc3)c3ccccc3C(=O)N2c2ccc(OC)cc2)cc1 (stereo unspecified)	-0.78
CCOCCCn1c(=S)[nH]c2cc(C(=O)NC3CCCCC3C)ccc2c1=O (stereo unspecified)	-0.24
Cc1ccc(N=C2NC(=O)CC(C(=O)Nc3ccc(C)c(C)c3)S2)cc1 (stereo unspecified)	-0.55
CCS(=O)(=O)N1CCC(C(=O)NCCCN2CCCC(C)C2)CC1 (stereo unspecified)	1.1
CCOc1ccc(/C(O)=C2\C(=O)C(=O)N(CCN3CCOCC3)C2c2ccc(Br)cc2)c(C)c1 (stereo unspecified)	0.09
COc1cc(OC)c(-c2c(C#N)c(N)n3c(nc4ccccc43)c2C#N)cc1OC	0.98
CCCCC(=O)NC(c1ccc(N(C)C)cc1)c1ccc2cccnc2c1O (stereo unspecified)	-0.04
CCOc1cc(-c2nc(-c3ccc(Cl)cc3)no2)cc(OCC)c1OCC	-1.6
COc1cc(OC)cc(C(=O)Nc2ccc3c(c2)OCO3)c1	0.34
COc1ccc(S(=O)(=O)N(CC(=O)NCc2ccccn2)c2ccc(C)cc2)cc1	-0.06
Cc1cccc(-n2nc3c(c2NC(=O)c2ccc(S(=O)(=O)N4CCOCC4)cc2)CSC3)c1C	0.55
CC1CN(S(=O)(=O)c2ccc(Sc3ccc(S(=O)(=O)N4CC(C)OC(C)C4)cc3)cc2)CC(C)O1 (stereo unspecified)	-0.25
O=C(c1ccc(Cn2cc(Cl)cn2)o1)N1CCN(Cc2ccc3c(c2)OCO3)CC1	0.54
CCCOC(=O)C1=C(C)NC(=O)NC1c1cccc2ccccc12 (stereo unspecified)	-0.54
CCOc1ccc(CN2CCN(Cc3ccco3)CC2)cc1	0
Cc1ccc(-c2cn(-c3ccccc3)c3[n+]2CCCS3)cc1	1
CCC(=O)Nc1sc2c(c1C(=O)Nc1ccc(Br)cc1)CCCCC2	1.8
COc1ccccc1-n1cc(-c2ccccc2)nc1SCC(=O)Nc1ccc(C)cc1	-0.56
COc1ccc(C(=O)N2CCC(C(=O)Nc3c(C)cccc3C)CC2)cc1	1

4 entries from above, as labelled records:
COc1ccc(S(=O)(=O)N(CC(=O)NCc2ccccn2)c2ccc(C)cc2)cc1
  Measles inh: -0.06

O=C(c1ccc(Cn2cc(Cl)cn2)o1)N1CCN(Cc2ccc3c(c2)OCO3)CC1
  Measles inh: 0.54

COc1ccc(C(=O)N2CCC(C(=O)Nc3c(C)cccc3C)CC2)cc1
  Measles inh: 1

Cc1cccc(-n2nc3c(c2NC(=O)c2ccc(S(=O)(=O)N4CCOCC4)cc2)CSC3)c1C
  Measles inh: 0.55

(continued)
SMILES	Measles inh
Cc1ccc(C2=NN(C(=O)CCN3CCOCC3)C(c3ccco3)C2)cc1 (stereo unspecified)	-0.12
COC(=O)c1ccc(C2Nc3ccccc3NC3=C2C(=O)CC(c2ccccc2)C3)cc1 (stereo unspecified)	0.97
FC(F)Oc1ccc(Br)cc1C1C=C(c2ccc(Br)cc2)Nc2ncnn21 (stereo unspecified)	-0.04
O=C(C1COc2ccccc2O1)N1CCc2ccccc21 (stereo unspecified)	-0.96
O=C(CS(=O)(=O)c1ccc(C(F)(F)F)cc1Cl)Nc1cc(OCC(F)(F)F)cc([N+](=O)[O-])c1	0.52
Cc1ccc(NC(=O)C(C(C)C)N2C(=O)c3ccccc3C2=O)cc1 (stereo unspecified)	-0.15
Clc1ccc(CSc2nc(NCc3ccco3)c3ccccc3n2)cc1	-0.21
C=CCn1c(C2CC(=O)N(c3ccccc3)C2)nc2ccccc21 (stereo unspecified)	1.2
O=C1C2ON(c3ccccc3)C(c3cccs3)C2C(=O)N1c1ccccc1 (stereo unspecified)	-1.2
Cc1ccc(NS(=O)(=O)c2ccc(Cl)c(C(=O)Nc3ccccc3[N+](=O)[O-])c2)cc1	-1.2
Cc1sc(NC(=O)CCC(=O)O)c(C(N)=O)c1-c1ccccc1	-0.19
COc1ccc(-c2cc(C(=O)Nc3ccc(C)c(F)c3)c3ccccc3n2)cc1	1
O=C1c2ccccc2C(=O)N1C1C(=O)N(c2ccc(Cl)cc2)C1c1ccc(F)cc1 (stereo unspecified)	0.89
CC(NC(=O)CSC(=Nc1ccccc1)NC#N)C12CC3CC(CC(C3)C1)C2 (stereo unspecified)	0.88
Cc1ccc2c3c(cccc13)-c1ccccc1C2=O	0.49
N#Cc1c(NC(=O)c2ccc(Cl)c(S(=O)(=O)N3CCOCC3)c2)sc2c1CCCC2	0.47
C#CCOc1ccc(-c2nnc(Nc3ccc(OC)c(C(=O)NC)c3)c3ccccc23)cc1	0.7
COc1ccc(C2CC(c3cccs3)Nc3nnnn32)c(OC)c1OC (stereo unspecified)	-0.37
O=C(O)c1cc(N2C(=O)C3C4C=CC(O4)C3C2=O)ccc1Cl (stereo unspecified)	0.73
O=C(Nc1ccccc1C(F)(F)F)c1cc(S(=O)(=O)NCc2ccccc2)ccc1F	-0.8
CCCOc1ccc(C(=O)N(Cc2ccc(N(C)C)cc2)C2CCS(=O)(=O)C2)cc1 (stereo unspecified)	-1.6
CCN(CC)S(=O)(=O)c1cccc2nsnc12	0.21
CCOc1ccc(C(=O)Nc2ccc3nn(-c4ccc(CC)cc4)nc3c2)cc1	-1.2
CC1CCC2C(=O)N(c3ccc(NCCc4ccccn4)c([N+](=O)[O-])c3)C(=O)C2C1 (stereo unspecified)	-0.3
O=C(Nc1nc(=O)c2ccccc2s1)c1ccc(F)cc1	1.3
Cc1ccccc1Cn1c(=O)n(CCC(=O)NCc2ccco2)c(=O)c2sccc21	2.4
O=C(Nc1nccs1)c1cc([N+](=O)[O-])ccc1Cl	-0.79
CC1CCCCC1NC(=O)CN1N=C(c2ccc(Cl)cc2)CCC1=O (stereo unspecified)	-0.88
O=C(CCCN1C(=O)c2ccccc2C1=O)Nc1ccc(S(=O)(=O)N2CCOCC2)cc1	-0.52
CCOC(=O)c1ccc(N2C(=S)NC3c4cccc(OCC)c4OC2(C)C3C(=O)N(C)C)cc1 (stereo unspecified)	-0.25
Cc1ncc(CO)c2cc(C(=O)Nc3cccc(C(F)(F)F)c3)c(=Nc3ccc(Oc4ccccc4)cc3)oc12	-0.11
Cc1cccc2nc(-c3ccsc3)c(Nc3ccccc3)n12	1.7
O=C(NCc1cccnc1)c1ccc2c(c1)ncn2-c1cccc(F)c1	-0.24
COc1ccc(S(=O)(=O)n2c(SCC(=O)Nc3ccc(C(C)C)cc3)nc3ccccc32)cc1	-0.32
O=C(c1nn2c(c1Cl)NC(c1cccs1)CC2C(F)(F)F)N1CCN(c2ccc(F)cc2)CC1 (stereo unspecified)	-1.9
CC(Oc1ccccc1)C(=O)NCCn1ccc2ccccc21 (stereo unspecified)	1.5
CCOc1ccc2nc(SCC(=O)NCCC34CC5CC(CC(C5)C3)C4)[nH]c2c1	-0.84
O=C1CC(c2ccco2)CC2=C1C(c1ccco1)Nc1ccccc1N2 (stereo unspecified)	0.26
N#Cc1nc(COc2ccc(F)cc2)oc1NCCCn1ccnc1	-1.2
COc1cc2c(cc1OC)C(C(=O)N1CCCCC1)C(c1ccc(SC)cc1)N(C)C2=O (stereo unspecified)	0.35
CC(C)(C)C(=O)Nc1nnc(-c2ccc(Br)cc2)s1	2
N#Cc1c2c(c(NCc3ccccc3)n3c1nc1ccccc13)CCC2	-0.59
O=C(Cc1c[nH]c2ccccc12)NCc1ccccc1	0.96
Cc1ccc(-c2nc3ncccc3o2)cc1NC(=O)COc1cccc(C)c1C	-0.59
O=C1CCCN2N=C(SCC(=O)Nc3cccc4ccccc34)SC2=N1	-0.25
COC(=O)c1sc(S(=O)(=O)N2CCCCC2)c(C(=O)OC)c1C	1.1
CCc1cc(C)cc(OCC(O)Cn2c(C(C)C)nc3ccccc32)c1 (stereo unspecified)	-0.17
COc1ccc(C(=O)Nc2ccc3nn(-c4ccc(F)cc4)nc3c2)cc1[N+](=O)[O-]	-0.29
O=c1cc(-c2ccccc2)c2ccc(OCc3ccc([N+](=O)[O-])cc3)cc2o1	-0.82
CCOC(=O)C1=C(C)N=C2SC(C)C(=O)N2C1c1ccc(OCC)cc1 (stereo unspecified)	-0.91

The list goes on.
SMILES	Measles inh
CC(C)(C)c1cc(Cc2ccc(O)c(C(=O)O)c2)cc(C(C)(C)C)c1O	-1.1
Cc1ccc(NC(=O)C2CCN(S(=O)(=O)c3cccc4cccnc34)CC2)cc1Cl	1
O=C(CSc1nc2ccccc2o1)Nc1ccc(Cl)cn1	-0.63
CCOC(=O)CSc1ncnc2nc[nH]c12	0.85
Cc1cccc(N2CCN(C(=O)c3cnn4c(C(F)(F)F)cc(-c5ccccc5)nc34)CC2C)c1 (stereo unspecified)	0.5
NC(=O)C1(N2CCCCC2)CCN(c2c(-c3ccccc3)c3cc(Cl)ccc3[nH]c2=O)CC1	-0.81
Cc1ccc2c(c1Br)C(=Nc1ccc(C#N)cc1)C(=O)N2	-0.68
CCc1ccc(C(=O)CC2(O)C(=O)Nc3ccccc32)cc1 (stereo unspecified)	0.98
Cc1ccc(CNC(=O)CCC(=O)Nc2ccc3nc(N4CCC(C)CC4)cc(C)c3c2)cc1	0.82
COCCNC(=O)c1sc2ncnc(N(C)c3ccccc3)c2c1C	0.3
COc1ccc(OC(=O)c2cccnc2)cc1	-0.61
O=C1C2C3C=CC(C3)C2C(=O)N1c1ccc(Nc2ccc3c(c2)CCC3)c([N+](=O)[O-])c1 (stereo unspecified)	-1.4
COc1ccccc1N(CC(=O)Nc1cccc(Br)c1)S(C)(=O)=O	1.3
CCOc1cc2[nH]c(=S)n(CCc3c[nH]c4ccccc34)c(=O)c2cc1OCC	0.88
O=c1c2ccccc2n(Cc2ccccc2Cl)c(=O)n1CCc1ccccc1	2.5
CCOC(=O)c1ccc(N2C(=O)CC(N3CCN(c4ccccc4O)CC3)C2=O)cc1 (stereo unspecified)	0.09
Cc1cc2nc(SCc3ccc(Cl)cc3)nc(C)c2cc1C	-0.11
COc1ccc2c(C)c(C)c(=O)oc2c1C	0.6
COC(=O)C1(C(F)(F)F)N=C2C(Cl)=CC(Cl)=CN2C(c2ccc(C)cc2)=N1 (stereo unspecified)	0.48
CC1(C)Oc2ccc(Br)cc2C2CC(c3cccs3)=NN21 (stereo unspecified)	-0.59
COc1ccc(C2=NN(C(=O)c3ccc(Br)o3)C(c3ccc(C)cc3)C2)cc1 (stereo unspecified)	-0.27
CCC(=O)N1CCc2cc(S(=O)(=O)CCC(=O)Nc3ccc(OC)cc3)ccc21	0.38

Part of the list above, reformatted:
O=c1c2ccccc2n(Cc2ccccc2Cl)c(=O)n1CCc1ccccc1
  Measles inh: 2.5

CCOC(=O)c1ccc(N2C(=O)CC(N3CCN(c4ccccc4O)CC3)C2=O)cc1 (stereo unspecified)
  Measles inh: 0.09

Cc1cc2nc(SCc3ccc(Cl)cc3)nc(C)c2cc1C
  Measles inh: -0.11

COc1ccc2c(C)c(C)c(=O)oc2c1C
  Measles inh: 0.6

Screening results from PubChem.

An excerpt; rates above refer to the full screens.
